# Yeast UUG start – modulators of yeast start codon fidelity, primary screen, whole organism, S. cerevisiae, single point, plate reader. 0.13% of 350,000 active. S. cerevisiae UUG-firefly luciferase reporter, luminescence/redox ratio. AID 602363, 2012. activity score, % at 18.7 µM;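 active means replicate mean at a twofold rise or more, about +100% in these data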;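 further: firefly luciferase made from a UUG start codon reports start codon fidelity; reporter light over untreated wells divided by growth signal over untreated wells; some hits fall short of that in this replicate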
# eIF4H inh – human eIF4H binding inhibitors, primary screen, translation initiation inhibitor project, biochemical, uHTS, fluorescence polarization; eIF4H fluorescence polarization binding assay; 0.94% of 290,000 active; Eukaryotic translation initiation factor 4H (Homo sapiens), Q15056; inhibition, % at 35 µM;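 active means 50% or more with normal probe brightness, or confirmed in later tests; about a fifth of its hits are not listed in these tables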;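 further: calls also rest on retests at 20 µM and on dose response follow-up; 0% = protein and probe with vehicle and 100% = probe without protein; strong numbers were not always called active; many hits fall short of the cut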
# MT1-MMP act inh – blockers of MT1-MMP proenzyme processing, primary screen, HT1080 RFP-PRO-GFP cells, GFP/RFP fluorescence | GFP/RFP ratio change, % at 20 µM | GFP/RFP ratio fluorescence, overnight; percent of plate control window, DMSO zero | Matrix metalloproteinase-14 (Homo sapiens), P50281 | 0.061% of 360,000 active | AID 651647, 2012;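 active means GFP/RFP ratio change of at least 30% with cell ATP level not reduced by more than half and red fluorescence within 50% of control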; further: strong numbers were not always called active
#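 Test system: HT1080 cells expressing an RFP-PRO-GFP fluorescent reporter construct / Compound dosing: single-point 20 µM compound, 1% DMSO / Schedule: cells overnight before dosing, compound overnight, 37 °C, 5% CO2 / Evaluation: GFP/RFP fluorescence ratio / Control set: DMSO and RFP-L50D-GFP cell wells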
# CSC inhib – cancer stem cell viability inhibitors, primary screen, luminescence | cancer stem cell-like cells viability | inhibition, % at 7.5 µM | 1.1% of 300,000 active;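 active means mean at 75% or more and at least half the replicates too; tested in HMLE shEcad cells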;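 further: 0% = median of negative and 100% = median of positive control wells; the first replicate is given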
# Rce1 inhib – yeast Rce1p protease inhibitors, primary screen, biochemical, fluorescence, cell-free homogeneous; calls only; 0.27% of 290,000 active; yeast membranes, quenched prenylated peptide cleavage fluorescence;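 active means fall in fluorescence gain of 50% or more versus controls, with final raw signal at or below 3038400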;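 further: plate controls were neutral control wells for no effect and wells lacking membranes for full effect; tested at 10 µM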
# Target sequence (Q03530 whole entry, looked up): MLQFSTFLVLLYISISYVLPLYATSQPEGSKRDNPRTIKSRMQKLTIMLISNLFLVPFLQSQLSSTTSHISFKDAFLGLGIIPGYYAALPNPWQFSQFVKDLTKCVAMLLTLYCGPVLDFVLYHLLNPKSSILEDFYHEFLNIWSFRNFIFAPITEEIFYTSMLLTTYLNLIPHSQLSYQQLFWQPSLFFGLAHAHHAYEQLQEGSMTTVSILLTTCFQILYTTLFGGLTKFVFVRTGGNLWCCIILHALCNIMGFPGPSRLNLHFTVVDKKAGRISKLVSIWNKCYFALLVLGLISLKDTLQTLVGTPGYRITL
# PABP FP inh – PABP poly(A) RNA binding inhibitors, primary screen, biochemical, fluorescence polarization, uHTS; 1% of 290,000 active; inhibition, % at 35 µM;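 active means 50% or more with normal probe brightness, or confirmed in later tests; about a fifth of its hits are not listed in these tables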;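 further: calls also rest on retests at 20 µM and on dose response follow-up; controls were probe without protein and protein plus probe with vehicle; some compounds called inactive have numbers as strong as hits; many hits fall short of the cut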
# HIV Env fusion – inhibitors of HIV-1 Env-driven cell-cell fusion, primary screen, HeLa-JRFL effector, CEM21 target cells, luciferase; inhibition, % at 12.3 µM; 1.1% of 360,000 active;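 active means mean replicate inhibition score of at least 50 and every replicate individually at or above 50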;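 further: 0% = plate neutral controls and 100% = maraviroc near 300 nM; one replicate is shown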
# MT1-MMP act inh RFP – second read-out of MT1-MMP act inh, no call of its own (marks repeat the call); RFP signal change, %; measured here: RFP expression control read;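 0 = vehicle wells; hits needed this value within 50% of zero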
# Starred values were filed as active, the others as inactive; i = inactive; nt = not tested or not shown; & = joins results of further samples; [ ] = dose if it differs, or a comment. An excerpt; count on the stated rates, not on these rows.
# Sequence of screens: Yeast UUG start, eIF4H inh, MT1-MMP act inh, MT1-MMP act inh RFP, CSC inhib, Rce1 inhib, PABP FP inh, HIV Env fusion
[1] Cc1cc(C)nc(SCC(=O)NNC(=O)c2cccs2)n1
 : -15, 5, -4, -1, -33, i, -15, -8
[2] COC(=O)C1CC2=C(CCCC2=O)NC1=O (stereo not drawn)
 : -5, nt, 2, 6, nt, nt, nt, 7
[3] CN(C)CCCNc1ncnc2sc(-c3ccccc3)cc12
 : -5, 9, 8, -3, -3, i, -11, -9
[4] COc1ccccc1NC(=O)CC(=O)CSc1nnc(-c2ccc(C)cc2)n1C
 : -9, 1, -5, -1, -1, i, 1, -75
[5] CC(C)Cn1c(CN(C)Cc2ccccc2)nc2c1c(=O)n(C)c(=O)n2C
 : 6, -8, 3, -10, -6, i, 7, -2
[6] CCN(CC)S(=O)(=O)c1ccc(O)c(C(=O)OCC(=O)N2CCCC2)c1
 : 7, 8, 0, 2, -10, i, 6, -2
[7] CC(OC(=O)c1cccc(S(=O)(=O)N2CCCCC2)c1)C(=O)NC1CCCCC1C (stereo not drawn)
 : 2, -1, -2, -2, -33, i, 8, nt
[8] Cc1ccc(C)c(NC(=O)C(=O)NCCCN2CCOCC2)c1
 : nt, 5, -1, 5, 0, i, 7, -10
[9] Cc1ccc(NS(=O)(=O)c2cccc3cccnc23)cc1Cl
 : -11, -8, 3, -3, -4, i, 6, 24
[10] CC1=C(C(=O)Nc2ccccc2)C(c2ccccc2)N2C(=O)CSC2=N1 (stereo not drawn)
 : nt, -1, 5, 6, -2, i, -6, nt
[11] CCOC(=O)c1sc(NC(=O)c2ccccc2F)c(C(N)=O)c1C
 : -11, 7, -5, -4, 15, i, -10, nt
[12] CCOC(=O)N1CCC2(CC1)C(C(=O)C13CC4CC(CC(C4)C1)C3)C2(C#N)C#N (stereo not drawn)
 : 7, -1, -12, -8, -11, i, 6, 48
[13] Oc1cccc(CCc2ccccn2)c1
 : -20, nt, 0, 3, nt, nt, nt, 23
[14] NC(=O)CC[C@H](NC(=O)[C@H](Cc1ccccc1)n1c(=O)[nH]c2ccccc2c1=O)C(=O)N1CCC[C@H]1C(=O)O
 : -2, -1, 3, 2, -8, i, 4, nt
[15] O=C(Cc1ccccc1)Nc1ccc(NC(=O)c2ccccc2)c(Cl)c1
 : 3, 6, 2, 2, -5, i, -4, -120
[16] NNC(=O)c1ccc(S(=O)(=O)N2CCc3ccccc32)cc1
 : 13, 2, 1, 5, -11, i, 8, -29
[17] N#C/C(=C(/O)COc1ccccc1)c1nc2ccccc2s1
 : -22, -6, -3, -7, 12, i, 1, 32
[18] Cc1cc(OCC(=O)NC2CC2)c2c(C)c(C)c(=O)oc2c1
 : -1, nt, 4, 2, -9, i, nt, -5
[19] Cc1ccc(CNC(=O)CCC2CCCN(Cc3cccc4c3OCO4)C2)o1 (stereo not drawn)
 : 10, -8, -13, 12, 8, i, 7, 19
[20] CC1CC(C)CN(C(=O)COC(=O)CCc2nc3ccccc3c(=O)[nH]2)C1 (stereo not drawn)
 : 0, -3, -2, -1, -6, i, -8, 4
[21] COc1ccccc1Cn1nnc2c(=O)[nH]c(C3CCN(C(=O)c4ccc(F)cc4)CC3)nc21
 : -2, -6, 2, 3, 1, i, -5, nt
[22] C[C@@H]1CN([C@@H](C)CO)C(=O)c2cc(N(C)C)ccc2O[C@@H]1CN(C)Cc1ccncc1
 : -3&-3, nt, -6, 1, nt, nt, nt, 4[16.7 µM]
[23] CC1CCN(c2oc(Cc3cccc4ccccc34)nc2C#N)CC1
 : -8, -4, 6, 0, 29, i, -6, nt
[24] COCCN(CCOC)C(=O)COC(=O)c1cc([N+](=O)[O-])ccc1Cl
 : 8, 2, 3, 1, -10, i, 4, 9
[25] O=S1c2ccccc2Sc2ccccc21
 : -27, nt, -1, 1, nt, nt, nt, -7
[26] COc1ccc(CNC(=O)c2ccc(S(=O)(=O)N3CCCC3)cc2)cc1OC
 : 20, 7, 0, -2, -16, i, 2, nt
[27] COc1ccc(N(C(=O)c2snc(C(N)=O)c2N)C(C(=O)NC2CCCCC2)c2ccc(F)cc2)c(OC)c1 (stereo not drawn)
 : -15, 30, -5, -5, 27, i, 7, 15
[28] Cc1cccc(Nc2nnc(-c3ccc(C(=O)N4C[C@H]5C[C@H](C4)c4cccc(=O)n4C5)cc3)c3ccccc23)c1
 : 1, -6, 2, 0, -12, i, -10, nt
[29] Clc1cccc(Cl)c1COc1ccncc1
 : nt, 0, 5, 4, -11, i, 31, nt
[30] CCc1ccccc1-n1nnnc1SCC(=O)Nc1cc(C)on1
 : -14, 10, 0, 3, -6, nt, 2, 3
[31] Cc1ccc(N=Nc2ccc3ccccc3c2O)cc1
 : -56, 16, 46, 16, 32, i, 14, -56
[32] C[C@@H]1CCCCO[C@@H](CN(C)S(=O)(=O)c2ccc(F)cc2)[C@@H](C)CN([C@H](C)CO)C(=O)c2cc(NC(=O)c3ccccc3)ccc2O1
 : 14&-6, nt, 3, -7, nt, nt, nt, -2
[33] Cc1cccc(CCNS(=O)(=O)c2ccc3c(c2)NC(=O)CS3)c1
 : -16, -4, 0, 0, -20, i, 18, 0
[34] COc1ccc(C2c3ccc(O)cc3Oc3ncn(CCN4CCOCC4)c(=N)c32)cc1 (stereo not drawn)
 : -9, -7, -7, -3, -3, i, -9, 8
[35] COc1ccc(C2NC(=O)NC(C)=C2C(=O)Nc2cccc(C)c2C)cc1 (stereo not drawn)
 : -3, -4, 1, 3, 1, i, -2, -16
[36] Cc1cccc(N(CC(=O)NCc2ccc3c(c2)OCO3)C(=O)CCC(=O)Nc2ccccn2)c1
 : -5, -13, -1, -5, nt, i, 0, nt
[37] Cc1ccc(NC(=O)Cn2cc(C(F)(F)F)cc(Cl)c2=O)cc1S(=O)(=O)N1CCCCC1
 : -8, nt, 5, -15, -2, i, nt, 22
[38] CCOc1cc(N2CCCC2)ccc1[N+](=O)[O-]
 : nt, -6, 8, 6, -10, i, 25, -73
[39] CCc1ccc(C(=O)COC(=O)CNC(=O)c2ccc(N3C(=O)c4ccccc4C3=O)cc2)cc1
 : -18, 0, 3, 5, -3, i, -2, -64
[40] O=C(CN1CCN(Cc2ccccc2)C1=O)NCCCN1CCOCC1
 : -16, 9, 0, 2, -6, i, 9, -18
[41] COc1ccc(N(CN2C(=O)C3CC=CCC3C2=O)C(=O)c2ccco2)cc1 (stereo not drawn)
 : nt, -5, 3, 3, -14, i, -4, -74
[42] COc1cc(OC)c2ccc(=O)oc2c1C(CCN1CCN(c2ccccc2)CC1)c1ccc2c(c1)OCO2 (stereo not drawn)
 : -2, -5, 4, -1, 21, i, -11, 2
[43] CCN(CC)CCNc1c(C)cc(CO)c(Cl)c1C
 : 10, nt, -10, 5, nt, nt, nt, 6
[44] Cc1ccc(C(C)C)cc1C(=O)CC1(O)C(=O)N(C)c2ccccc21 (stereo not drawn)
 : -10, -10, -2, -1, 10, i, 6, nt
[45] CCn1c(=N)c(S(=O)(=O)c2ccc(F)cc2)cc2c(=O)n3ccccc3nc21
 : -13, -2, 3, 2, -4, i, 1, nt
[46] Cc1ccccc1-c1nnc(SCC(=O)NC2CCCC2)n1C
 : -15, nt, 5, -1, 0, i, nt, 7
[47] O=C(O)c1cccc(-c2ccc(/C=N/n3cnnc3)o2)c1
 : -16, 3, -3, 3, 1, i, 6, -34
[48] CCCc1cc(C(=O)Nc2cc(C)ccc2O)no1
 : -13, 7, 3, -1, 17, i, 19, -40
[49] CN(Cc1cccs1)C(=O)C1CCN(S(=O)(=O)c2ccccc2)CC1
 : -4, nt, -4, 2, -22, nt, nt, 11
[50] CC1CCN(S(=O)(=O)c2ccc(-c3nnc(SCc4cccnc4)o3)cc2)CC1
 : -18, -7, 1, -4, 72, nt, -8, 25
[51] COc1cc(OC)cc(-c2c(-c3cccs3)c3cc(-c4cccc5[nH]ccc45)ccc3n2C)c1
 : 1, nt, -8, -5, -23, nt, nt, 45
[52] CC(O)[C@@H](NC(=O)C1CCC(CNC(=O)[C@H](Cc2ccccc2)NC(=O)OC(C)(C)C)CC1)C(=O)O (stereo partly drawn)
 : -9, 4, 0, 4, nt, i, 7, 7
[53] Cn1cc(Cl)c(C(=O)N/N=C/c2ccc(OS(=O)(=O)c3ccccc3)cc2)n1
 : 0, 5, 2, 2, 2, i, -3, -85
[54] Cc1c(NC(=O)COc2cccc(F)c2)c(=O)n(-c2ccccc2)n1C
 : 0, nt, -3, 1, -18, nt, nt, -5
[55] COc1ccccc1NC(=S)N(Cc1ccccc1)Cc1ccccn1
 : -33, -4, -1, -1, 7, i, -8, 3
[56] NS(=O)(=O)c1cc(C2(O)NC(=O)c3ccccc32)ccc1Cl (stereo not drawn)
 : 11, -5, 2, 4, -1, i, 4, 10
[57] CCOc1ccc2nc(NC(=O)CSc3nc4c(c(=O)n(C)c(=O)n4C)n3C(C)C)sc2c1
 : -15, -17, -11, -24, 3, i, 1, nt
[58] Cc1ccc(SCC(=O)Nc2c(Br)cnn2C)cc1
 : -3, 9, 0, -15, -4, i, -15, 1
[59] C#CCSc1cc(C(F)(F)F)nc(-c2ccccn2)n1
 : nt, -4, -2, 0, -7, i, -3, 3
[60] O=C(NCC1CCCN(Cc2cccc(OCCO)c2)C1)c1ccc(F)cc1 (stereo not drawn)
 : nt, 6, 0, -1, -4, i, 2, -10
[61] N#Cc1c(-c2ccc(F)cc2)ccnc1N1CCOCC1
 : -4, -6, 1, 1, -6, i, -9, 0
[62] COc1cccc(-c2nc(C(=O)NCC3CCCO3)cc3c2[nH]c2ccccc23)c1 (stereo not drawn)
 : -9, -8, -1, -9, 30, i, 1, nt
[63] CCCS(=O)(=O)NCCc1cc2c(C)ccc(C)c2[nH]c1=O
 : 1, 6, 6, 2, 26, i, 0, 6

# Assay outcomes from PubChem BioAssay.
